Screens deposited in PubChem by Broad Institute.
ALR inh: blocks human ALR sulfhydryl oxidase activity | P55789 | inhibition, % (concentration not given with the values) | hit rate 3.8% among 290,000 | purified ALR, DTT oxidation, H2O2 HRP-luminol luminescence | AID 485317;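 active = mean and each replicate at 75% or more; inconclusive = only one of the two met; inactive = neither met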;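 also: stock transfer was 7.5 nL into about 7.5 µL; 0% = neutral wells and 100% = wells with inactivated enzyme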
Target sequence (P55789 whole entry, looked up): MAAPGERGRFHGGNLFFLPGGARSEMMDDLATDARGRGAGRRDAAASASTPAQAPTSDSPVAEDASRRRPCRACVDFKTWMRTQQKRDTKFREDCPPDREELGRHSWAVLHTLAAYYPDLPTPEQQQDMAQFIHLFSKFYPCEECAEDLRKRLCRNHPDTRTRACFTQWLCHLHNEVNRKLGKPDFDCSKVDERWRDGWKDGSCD
MLL AF4-AF9 inh: MLL-AF4/AF9 protein interaction inhibition | AlphaScreen, biotin-AF4 peptide binding to FLAG-AF9 | inhibition, % at 10 µM | hit rate 0.47% among 350,000;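 active = every replicate reaching a set inhibition limit, whatever the replicate mean, cut at about 25% in these data; inconclusive = mean inhibition reaches that limit but some replicates miss it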;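 also: 0% = plate neutral control median and 100% = total signal loss; the record names both 10 and 1 µM as test concentration; the first replicate is given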
Target sequence (P42568 whole entry, looked up): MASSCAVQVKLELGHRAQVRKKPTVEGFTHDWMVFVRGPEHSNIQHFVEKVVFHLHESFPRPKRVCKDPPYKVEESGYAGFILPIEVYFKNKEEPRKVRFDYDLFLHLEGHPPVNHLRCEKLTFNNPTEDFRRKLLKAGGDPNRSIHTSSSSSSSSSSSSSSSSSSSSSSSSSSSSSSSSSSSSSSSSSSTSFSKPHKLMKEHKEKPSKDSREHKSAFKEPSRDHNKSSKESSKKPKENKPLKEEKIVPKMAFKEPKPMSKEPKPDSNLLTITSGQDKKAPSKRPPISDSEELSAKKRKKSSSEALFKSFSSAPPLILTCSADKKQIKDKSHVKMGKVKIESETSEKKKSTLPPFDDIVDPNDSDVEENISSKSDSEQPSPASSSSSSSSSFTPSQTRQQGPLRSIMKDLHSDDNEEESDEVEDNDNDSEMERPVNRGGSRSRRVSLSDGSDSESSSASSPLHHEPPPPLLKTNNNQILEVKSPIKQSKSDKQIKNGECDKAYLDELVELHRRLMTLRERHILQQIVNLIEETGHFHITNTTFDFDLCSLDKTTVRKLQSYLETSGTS
rRNA inh HTS: selective bacterial rRNA inhibition in E. coli; E. coli WT GFP vs humanized-ribosome RFP mutants, fluorescence, 24 h; stronger effect = lower value; DMSO median 0, no signal -100; GFP signal change (wild-type ribosome), % (concentration not given with the values); hit rate 1.6% among 350,000;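 active = significant combined selectivity score with lowered wild-type GFP, culture density cut under 30%, mutant RFP and density less affected; inactive = any of these conditions unmet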; also: one replicate is shown; some compounds called inactive have numbers as strong as hits
T cruzi repl: blocks replication of Trypanosoma cruzi; AID 1885; T. cruzi beta-gal in NIH3T3, luminescence, 90 h; inhibition, % (test concentration not listed); hit rate 1.4% among 300,000;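 active = mean inhibition across valid replicates above about 55%, limit read from the data; inconclusive = mean below that limit but half or more replicates reach it; inactive = mean below it, under half of replicates reach it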;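 also: signal also drops with host cell toxicity which is not excluded here; 0% = plate median of DMSO wells and 100% = zero luminescence signal; higher percent means less beta-gal luminescence so fewer parasites; stock transfer was 50 nL into about 50 µL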
RanGTP-Impb inh: inhibitors of RanGTP-importin-beta interaction, primary screen, biochemical, FRET, CFP-Ran, YFP-importin-beta, homogeneous; cell-free CFP-Ran/YFP-importin-beta FRET ratio; hit rate 1.1% among 300,000; inhibition, % (no concentration beside the values);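 active = most replicates above 15%; inconclusive = exactly half above 15%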;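 also: 0% = DMSO wells and 100% = Ran loaded with GDP instead of GTP; wells of about 40 µL received 100 nL stock; the first replicate is given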
Beta apoptosis: blocks beta cell apoptosis; hit rate 0.8% among 300,000; INS-1E cytokine-induced death, ATP luminescence, 48 h; percent of positive-control rescue, neutral wells zero; protection from apoptosis, % (test concentration not listed); AID 435005;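 active = all replicates at 75% or more, or half of them and the mean; inconclusive = half reach 75% but not the mean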;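 also: 0% = cytokine-treated negative control wells and 100% = positive control rescue; higher means more ATP so stronger rescue from cytokine killing; wells of about 40 µL received 100 nL stock; the first replicate is given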
FGF22 binding: binders of recombinant human FGF22 by thermal shift; calls only at 9.99 µM; AID 651658; SYPRO orange fluorescence; percent of sucrose octasulfate shift, DMSO zero; hit rate 1.5% among 340,000; Q9HCT0;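 active = melting point raised past a set limit in the mean and every replicate; inconclusive = no clear call; three in four hits are not shown here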
Target sequence (Q9HCT0 whole entry, looked up): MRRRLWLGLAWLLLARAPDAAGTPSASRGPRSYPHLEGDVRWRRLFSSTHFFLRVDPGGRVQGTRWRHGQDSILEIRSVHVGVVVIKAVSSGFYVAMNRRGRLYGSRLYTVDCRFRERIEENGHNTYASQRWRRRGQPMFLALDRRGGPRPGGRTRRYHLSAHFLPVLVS
Calb FLC: C. albicans growth modulation with fluconazole | C. albicans CaCi-2 (fluconazole-resistant clinical isolate) + fluconazole, Alamar Blue growth, 48 h | growth inhibition, % (concentration not given with the values) | hit rate 0.57% among 300,000 | AID 1979;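 active = most replicates above 75%; inconclusive = exactly half above 75%; inactive = most below 75%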;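 also: all wells also contain fluconazole at 8 µg/ml as a sub-toxic cotreatment; 0% = median of DMSO wells and 100% = median of geldanamycin control wells; wells of about 8 µL received 7.5 nL stock; the first replicate is given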
rRNA inh HTS OD600: recorded beside rRNA inh HTS, whose call it bears; OD600 change, %; measured here: OD600 growth;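 optical density of the mix in the first replicate; 0 = DMSO median and -100 = no signal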
rRNA inh HTS RFP: also measured in rRNA inh HTS; calls as there; RFP signal change, %; measured here: RFP humanized mutant strains;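 first replicate; 0 = DMSO median and -100 = no signal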
* = called active by the depositor; i = inactive; ? = inconclusive; . = not tested or not shown.

SMILES	ALR inh	MLL AF4-AF9 inh	rRNA inh HTS	rRNA inh HTS OD600	rRNA inh HTS RFP	T cruzi repl	RanGTP-Impb inh	Beta apoptosis	FGF22 binding	Calb FLC
CCC(C)N1Cc2ccccc2C1=N (configuration not stated)	-2	.	17	13	2.9	-10	1.2	1	.	-13
COC(=O)C1=C(c2ccc(F)cc2OCc2ccccc2)C[C@@H]2CC[C@H]1N2C(=O)NCc1ccc(C(F)(F)F)cc1	-2	-12	16	29	-9.6	.	.	9	i	.
COC(=O)C1=C(c2cccc(OCc3ccccc3)c2)C[C@@H]2CC[C@H]1N2C(=O)NCc1ccc(OC)c(OC)c1	-11	2.9	-14	-3	15	.	.	-2	i	.
O=C1CN(O)C(c2ccccc2)=c2cc(Br)ccc2=N1	-5	0.7	0	-1	-3.5	-3	-0.2	-3	i	-2
CCN1CCN(C(=O)Cc2ccc(C)cc2)CC1	-2	-7.2	15	20	2.3	-2	0.8	-3	i	2
O=C1CN(O)C(c2ccccc2Cl)=c2cc(Br)ccc2=N1	0	-2.8	6	12	0.5	-17	-1.4	-3	i	-4
CCOP(=O)(OCC)C(NC(=O)CC(C)C)C(Cl)(Cl)Cl (configuration not stated)	3	-1.0	10	28	-3.0	5	2.2	-8	i	-1
O=C(NCc1ccc(C(=O)N2CCC3(CC2)OCCO3)cc1)c1cccc(Br)c1	-12	.	.	.	.	0	1.3	2	.	21
CC(=NCCCn1ccnc1)c1c(O)n(-c2ccccc2)c(=O)[nH]c1=O	-5	2.5	8	9	-1.4	-7	8.6	.	i	3
CSC(=Nc1ccccc1)c1c(O)n(C)c(=O)n(C)c1=O	-4	.	-45	-46	-8.4	-2	0.3	3	.	24
Nc1c(C(=O)NCc2ccco2)c2nc3ccccc3nc2n1CCN1CCOCC1	7	.	.	.	.	8	46*	-2	.	15
Cc1cc(C=C2C(=O)NC(=O)NC2=O)c(C)n1-c1ccc2c(c1)OCO2	-7	-5.3	2	-4	3.7	-14	?	-5	i	-2
CCCCNC(=O)NC(C(N)=O)P(=O)(OCC)OCC (configuration not stated)	-4	-43	9	3	7.3	-3	2.6	-10	i	-3
C/C(=N\Nc1ccccc1)c1c(O)n(C)c(=O)n(C)c1=O	99*	7.8	10	1	0.5	53	-1.4	-4	i	-1
CCn1cc(CN2CCCC(C(=O)c3sccc3C)C2)cn1 (configuration not stated)	-21	-0.5	4	-2	-4.8	46	-9.4	-4	i	2
CC(=NCCN1CCOCC1)c1c(O)n(Cc2ccccc2)c(=O)[nH]c1=O	-4	.	.	.	.	-17	0.1	-4	.	20
Cc1cc(C=C2C(=O)N(C)C(=S)N(C)C2=O)c(C)n1-c1cccnc1	72	.	.	.	.	-13	-0.5	-7	.	-2
CCC(=Nc1ccc2c(c1)CCC2)c1c(O)n(C2CCCCC2)c(=O)[nH]c1=O	27	.	.	.	.	28	1.3	0	.	-4
Cc1c(C=O)c2ccccc2n1Cc1ccccc1	-18	-1.0	-11	-11	-1.3	-20	2.3	-5	i	-9
COc1cc(N2CCOCC2)ccc1/C=C1\C(=O)NC(=O)N(C2CCCCC2)C1=O	7	.	.	.	.	-13	?	.	.	-8
CCOc1ccccc1C1SCC(=O)Nc2c1c(=O)[nH]n2C(CC)CC (configuration not stated)	-9	.	.	.	.	2	-0.4	4	.	16
Cn1c(O)c(/C=N/NC(=O)c2ccncc2)c(=O)[nH]c1=S	19	1.5	10	9	4.0	-19	6.4	2	i	-2
CC12CC[C@H]3[C@@H](CCC4(O)C[C@H](O)CCC34/C=N/NC(=O)c3ccccc3O)C1(O)CCC2C1=CC(=O)OC1 (some centres not stated)	2	-6.7	3	3	4.8	-12	-3.0	3	i	-1
COc1ccc(C2NCCc3[nH]cnc32)cc1 (configuration not stated)	-5	1.2	13	16	6.4	-11	4.9	-3	i	9
CC(=O)c1cccc(NC(=O)N2C[C@H]3C[C@@H](C2)c2cccc(=O)n2C3)c1	.	0.3	.	.	.	-4	5.7	-1	i	4
O=[N+]([O-])c1cc(Cl)c(O)c(-[n+]2c(-c3ccccc3)cc(-c3ccccc3)cc2-c2ccccc2)c1	.	14	-24	-13	12	24	?	14	i	-2
CN1CCC(=O)N(CCN=[N+]=[N-])CC1	-10	-2.3	15	13	0.2	-2	-1.3	-4	i	-20
CCC(=NCCCn1ccnc1)c1c(O)n(Cc2ccccc2)c(=O)[nH]c1=O	-7	.	.	.	.	-23	1.1	-4	.	4
CC12CCC3C(CCC4C/C(=N/O)CCC43C)C1CCC2O (configuration not stated)	-13	-1.1	-41	-57	-1.3	2	3.5	-1	i	-3
O=C(COc1ccccc1F)N1CCN(CCN2C(=O)c3cccc4cccc(c34)C2=O)CC1	-3	7.1	-2	6	-2.0	28	-2.1	12	i	24

A draw from above in order of molecular weight, low to high:
SMILES	ALR inh	MLL AF4-AF9 inh	rRNA inh HTS	rRNA inh HTS OD600	rRNA inh HTS RFP	T cruzi repl	RanGTP-Impb inh	Beta apoptosis	FGF22 binding	Calb FLC
CN1CCC(=O)N(CCN=[N+]=[N-])CC1	-10	-2.3	15	13	0.2	-2	-1.3	-4	i	-20
COc1ccc(C2NCCc3[nH]cnc32)cc1 (configuration not stated)	-5	1.2	13	16	6.4	-11	4.9	-3	i	9
Cn1c(O)c(/C=N/NC(=O)c2ccncc2)c(=O)[nH]c1=S	19	1.5	10	9	4.0	-19	6.4	2	i	-2
CCn1cc(CN2CCCC(C(=O)c3sccc3C)C2)cn1 (configuration not stated)	-21	-0.5	4	-2	-4.8	46	-9.4	-4	i	2
CC(=O)c1cccc(NC(=O)N2C[C@H]3C[C@@H](C2)c2cccc(=O)n2C3)c1	.	0.3	.	.	.	-4	5.7	-1	i	4
Cc1cc(C=C2C(=O)N(C)C(=S)N(C)C2=O)c(C)n1-c1cccnc1	72	.	.	.	.	-13	-0.5	-7	.	-2
CC(=NCCN1CCOCC1)c1c(O)n(Cc2ccccc2)c(=O)[nH]c1=O	-4	.	.	.	.	-17	0.1	-4	.	20
CCOc1ccccc1C1SCC(=O)Nc2c1c(=O)[nH]n2C(CC)CC (configuration not stated)	-9	.	.	.	.	2	-0.4	4	.	16
CCC(=NCCCn1ccnc1)c1c(O)n(Cc2ccccc2)c(=O)[nH]c1=O	-7	.	.	.	.	-23	1.1	-4	.	4
COc1cc(N2CCOCC2)ccc1/C=C1\C(=O)NC(=O)N(C2CCCCC2)C1=O	7	.	.	.	.	-13	?	.	.	-8
O=C(COc1ccccc1F)N1CCN(CCN2C(=O)c3cccc4cccc(c34)C2=O)CC1	-3	7.1	-2	6	-2.0	28	-2.1	12	i	24
O=[N+]([O-])c1cc(Cl)c(O)c(-[n+]2c(-c3ccccc3)cc(-c3ccccc3)cc2-c2ccccc2)c1	.	14	-24	-13	12	24	?	14	i	-2
CC12CC[C@H]3[C@@H](CCC4(O)C[C@H](O)CCC34/C=N/NC(=O)c3ccccc3O)C1(O)CCC2C1=CC(=O)OC1 (some centres not stated)	2	-6.7	3	3	4.8	-12	-3.0	3	i	-1

(further entries)
SMILES	ALR inh	MLL AF4-AF9 inh	rRNA inh HTS	rRNA inh HTS OD600	rRNA inh HTS RFP	T cruzi repl	RanGTP-Impb inh	Beta apoptosis	FGF22 binding	Calb FLC
C#CCOc1ccc2c(c1)c(C(C)=O)c(C)n2Cc1ccccc1	.	1.5	-34	28	-2.6	6	1.6	1	i	-7
CN(Cc1c[nH]c2ccccc12)C1CCCCC1	46	4.6	7	8	0.8	82*	5.4	102*	i	-20
COc1ccc2c(c1)c(C(=O)C(C)N1CCCCC1)c(C)n2C (configuration not stated)	1	-2.2	4	5	-17	-18	7.0	-5	i	3
CC(/C=C(\C)Nc1ccccc1)=Nc1ccccc1	.	1.9	11	11	3.2	1	0.4	-8	i	-12
Cc1ccc2c(c1)N(CCC(=O)N1CCC3(CC1)OCCO3)C(=O)CO2	-14	.	.	.	.	-1	-0.8	-2	.	10
Cc1cc(NC(=O)COC(=O)c2c(C)nn(Cc3ccccc3)c2C)no1	-2	.	.	.	.	-43	5.3	4	.	-1
CC(C)(C)NC(=S)N1CCn2cccc2C1c1cccnc1 (configuration not stated)	.	0.8	21	14	2.6	-8	-2.3	-2	i	-1
O=C(Nc1nc(-c2ccccc2)c(-c2ccccc2)s1)c1ccc(S(=O)(=O)N(CCCl)CCCl)cc1	-1	-3.7	17	9	0.1	56*	1.2	6	i	5
COC(=O)C1=C(c2cccc(OC)c2OC)C[C@@H]2CC[C@H]1N2C(=O)NCCS(C)=O (some centres not stated)	-4	0.9	17	11	2.7	9	-0.6	-5	i	1
CCC(=O)c1cn(Cc2ccccc2C#N)c2ccccc12	0	.	.	.	.	-15	1.1	-2	.	-5

Quoted at random: two records from the list, in no set order.
SMILES	ALR inh	MLL AF4-AF9 inh	rRNA inh HTS	rRNA inh HTS OD600	rRNA inh HTS RFP	T cruzi repl	RanGTP-Impb inh	Beta apoptosis	FGF22 binding	Calb FLC
CC(C)(C)NC(=S)N1CCn2cccc2C1c1cccnc1 (configuration not stated)	.	0.8	21	14	2.6	-8	-2.3	-2	i	-1
CCC(=O)c1cn(Cc2ccccc2C#N)c2ccccc12	0	.	.	.	.	-15	1.1	-2	.	-5

The results go on:
SMILES	ALR inh	MLL AF4-AF9 inh	rRNA inh HTS	rRNA inh HTS OD600	rRNA inh HTS RFP	T cruzi repl	RanGTP-Impb inh	Beta apoptosis	FGF22 binding	Calb FLC
CCOc1ccc(Cl)cc1CNCCc1ccccc1F	-2	-0.9	4	-9	0.9	19	-5.4	2	i	-8
O=S(=O)(c1ccc(Cl)cc1)N1CC1c1ccccc1 (configuration not stated)	1	.	.	.	.	-2	4.7	0	.	-9
C[C@]12CC[C@@H](O)CC1=CC(=O)C1C2CC[C@]2(C)C(=O)CCC12 (some centres not stated)	5	-1.5	1	-4	6.5	.	.	-6	i	.
Cc1oc(-c2ccccc2F)nc1CS(=O)CC(=O)N1CCC2(CC1)OCCO2 (configuration not stated)	99*	.	.	.	.	-6	1.3	0	.	16
O=C(c1cc(S(=O)(=O)N2CCOCC2)ccc1F)N1CCC2(CC1)OCCO2	-17	.	.	.	.	-2	?	1	.	-2
COc1ccc2c(c1)CC1(CN2C)C(=O)NC(=O)N(CCc2ccccc2)C1=O (configuration not stated)	-25	8.2	.	.	.	3	9.7	0	.	20
NS(=O)(=O)c1ccc(N=Nc2c(O)[nH]c(=S)[nH]c2=O)cc1	0	-39	10	4	1.6	-6	0.1	-4	i	8
C=CCN(CC=C)C(=O)Nc1ccc(OCC)cc1	-9	-0.6	10	11	0.2	-4	-2.1	2	i	-33
O=C(COC(=O)Cc1ccccc1)Nc1ccc(F)cc1	-1	-2.3	5	-1	-2.2	-2	-2.3	6	i	-22

These rows are one share of the data, so the mix of outcomes need not match the whole.
